Screening results from PubChem.
StopGo reporter: lowers the luciferase signal of an FMDV 2A StopGo reporter. human cells with a luciferase reporter of 2A StopGo recoding; control for the full effect not named in the record. Potency, µM (titrated, usually from 57.9 µM), for the others: at the top dose signal change, negative = less light. 1.2% of 410,000 active. AID 1159524; active = well fitted falling curve with a large enough effect; inconclusive = small, poorly fitted or top-dose-only effect; inactive = no such curve, though single readings can be large or run the other way; tested in HEK293T cells; further: on the % scale 0 is the no-effect control and ±100 the full control effect; nearly all actives have a fitted effect of over 45% in size; luciferase light after 4 h
Lassa entry inh: inhibitors of Lassa virus binding or cell entry; 1.2% of 300,000 active; Potency, µM (series often up to 37.9 µM), without a hit: at the top dose activity change, negative = inhibition, most hits filed as inhibitors; Lassa virus pseudotype entry inhibition, cell reporter; control for the full effect not named in the record; active means well fitted inhibition curve with a large enough effect; inconclusive means small, poorly fitted or top-dose-only effect, or effect the other way; inactive means flat fitted curve, though single readings scatter; tested in HEK293 cells; further: on the % scale 0 is the no-effect control and ±100 the full control effect; nearly all actives have a fitted effect of over 50% in size; luciferase read-out
Cruzain inh noDet: blocks cruzain activity in detergent-free assay; P25779; purified cruzain, Z-FR-AMC fluorescence, no detergent; Potency, µM, without a hit: max response, negative = inhibition, usual class: inhibitors; 2.3% of 200,000 active;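 further: plate controls were enzyme without inhibitor for no effect and buffer without enzyme for full effect; nearly all actives have a fitted effect of over 40% in size; top concentration of the series not given in the record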
Target sequence (P25779 123-467 limits assumed): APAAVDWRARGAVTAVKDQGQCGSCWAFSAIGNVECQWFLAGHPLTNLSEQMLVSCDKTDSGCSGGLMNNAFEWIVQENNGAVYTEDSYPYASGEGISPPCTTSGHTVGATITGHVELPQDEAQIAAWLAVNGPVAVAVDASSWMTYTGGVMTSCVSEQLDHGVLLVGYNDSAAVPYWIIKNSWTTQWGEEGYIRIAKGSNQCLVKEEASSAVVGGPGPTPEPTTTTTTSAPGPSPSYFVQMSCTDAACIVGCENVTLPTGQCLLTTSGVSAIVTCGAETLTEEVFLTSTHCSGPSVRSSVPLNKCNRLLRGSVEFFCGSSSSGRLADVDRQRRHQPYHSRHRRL
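Detergent-free condition (0.00005% Triton X-100) in acetate buffer pH 5.5 with DTT. 1.5 nM enzyme and compound were pre-mixed 15 min, then 2 uM Z-FR-AMC substrate added; reaction progress from fluorescence change between first and third reads (60 s).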
SARS PLpro yeast: SARS-CoV PLP inhibition in yeast; 0.19% of 330,000 active; AID 485353; Potency, µM (top dose mostly 32.9 µM), for inactives: at the top dose activity, positive = growth rescue; S. cerevisiae expressing SARS-CoV PLpro, growth rescue; control for the full effect not named in the record; active means well fitted rising curve with a large enough effect; inconclusive means small, poorly fitted or top-dose-only effect; inactive means no such curve, though single readings can be large or run the other way; further: 0% is about no effect; nearly all actives have a fitted effect of over 55% in size; growth read by luminescence after 48 h
RE007 growth inh: less growth of the S. pombe RE007 Vpr strain; S. pombe RE007 Vpr strain, BacTiter-Glo ATP luminescence, 24 h; control for the full effect not named in the record; Potency, µM (top dose mostly 92.2 µM), inactives show at the top dose activity change, negative = less growth; 0.21% of 360,000 active; AID 651644; active = well fitted falling curve with a large enough effect; inconclusive = small, poorly fitted or top-dose-only effect; inactive = no such curve, though single readings can be large or run the other way;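 further: on the % scale 0 is the no-effect control and ±100 the full control effect; nearly all actives have a fitted effect of over 50% in size; the assay follows cell death caused by Vpr and the record does not say whether a fall means rescue or toxicity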
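Fission yeast strain RE007, carrying one chromosomally integrated HIV-1 vpr copy, was seeded at OD 0.01 in PMG+AL medium with 23 nL pinned compound. After 24 h at 30 °C and 99% humidity, viability was read by BacTiter-Glo luminescence.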
Cruzain inh Det: inhibitors of Trypanosoma cruzi cruzain with detergent | Potency, µM, for the others: max response, negative = inhibition, actives largely listed as inhibitors | 0.43% of 200,000 active | purified cruzain, Z-FR-AMC fluorescence, 0.01% Triton | P25779;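 further: plate controls were neutral wells for no effect and buffer without enzyme for full effect; nearly all actives have a fitted effect of over 40% in size; top concentration of the series not given in the record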
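Read-out: AMC fluorescence (360 nm excitation, 450 nm emission), four reads over 2 min, first-to-third difference used. Conditions: cruzain 1.5 nM, Z-FR-AMC 2 uM, pH 5.5 acetate, 5 mM DTT, 0.01% Triton X-100.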
NS1 function inh: blocks influenza NS1 protein function. AID 2326. 0.4% of 270,000 active. Potency, µM (titrated, usually from 46.1 µM), inactives show top-dose activity, positive = more growth. S. cerevisiae slowed by influenza A NS1, growth recovery by OD600; active means well fitted rising curve with a large enough effect; inconclusive means small, poorly fitted or top-dose-only effect; inactive means no such curve, though single readings can be large or run the other way; further: nearly all actives have a fitted effect of over 50% in size
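OD600 was taken as the measure of yeast growth restored by compound in an NS1-expressing S. cerevisiae strain. Cells had been washed out of glucose medium and diluted 1:100 into galactose -URA medium, pH 6.0.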
Marburg entry inh: Marburg virus entry inhibition | Marburg virus pseudotyped entry inhibition, cell reporter; control for the full effect not named in the record; about a third of the inactives were read at about 46 µM | Potency, µM (highest dose often 37.8 µM), without a hit: top-dose activity change, negative = inhibition, hits mostly inhibitors | 1.8% of 300,000 active | AID 540276; active = well fitted inhibition curve with a large enough effect; inconclusive = small, poorly fitted or top-dose-only effect, or effect the other way; inactive = flat fitted curve, though single readings scatter; tested in HEK293 cells; about a fifth of its hits are not listed in these tables; further: on the % scale 0 is the no-effect control and ±100 the full control effect; luciferase read-out
Active calls of the source: *; ? = inconclusive; nt = no result given; & = joins results of further samples; [ ] = dose if it differs, or a comment. Unless noted, the call rests on the fitted dose curve; in most records, active means well fitted curve in the direction sought with a large enough effect; inconclusive means small, poorly fitted or top-dose-only effect, or another doubt; inactive means no such curve, though single readings can be large; an effect the other way counts as inactive or inconclusive. Potency means the concentration at half of the fitted maximal effect.

No.	structure	StopGo reporter	Lassa entry inh	Cruzain inh noDet	SARS PLpro yeast
1	COc1ccccc1NC(=O)CSc1nc2c(oc3ccccc32)c(=O)n1-c1ccc(C)cc1	-21%	nt	-1%	nt
2	CC1Cc2ccccc2N1C(=O)COC(=O)CNC(=O)c1ccc(Br)o1 (configuration not stated)	3%	-4%	4%	1%
3	CC(=O)Nc1ccc2nsnc2c1	-11%	nt	nt	-2%
4	C#CCCCCCCC#CCN(C)C	-17%	16%	-9%	29%
5	COC(=O)c1cn(Cc2ccc(C(F)(F)F)cc2)cc(F)c1=O	-23%	nt	nt	0%
6	O=C(O)c1ccccc1CSc1nnnn1-c1ccccc1	-8%	17%[46.1 µM]	nt	2%
7	Cc1cc(NC(=O)CSc2nccn2-c2ccc([N+](=O)[O-])cc2)no1	-9%	-16%	nt	0%
8	COc1ccc(NCc2nnc(SCC(=O)NCc3ccco3)n2-c2ccccc2OC)cc1	21%	-12%	-1%	4%

No.	RE007 growth inh	Cruzain inh Det	NS1 function inh	Marburg entry inh
1	nt	-1.1%	nt	?
2	25%	2.7%	-13%	14%
3	3%	nt	0%	nt
4	-6%	2.3%	10%	4%
5	14%	nt	-1%	nt
6	13%	nt	2%	12%[46.1 µM]
7	11%	nt	nt	9%
8	3%	-1.0%	11%	10%[46.1 µM]

Going on with the list:
No.	structure	StopGo reporter	Lassa entry inh	Cruzain inh noDet	SARS PLpro yeast
9	O=C(CN1C(=O)NC2(CCCC2)C1=O)Nc1ccc(Cl)cc1C(F)(F)F	0%	-9%[46.1 µM]	nt	-2%
10	CCOc1ccc(C(=O)NCC(c2ccc3c(c2)OCO3)N2CCN(C)CC2)cc1 (configuration not stated)	-11%	-9%[46.1 µM]	-10%	nt
11	CCCCn1c(SCC(=O)NCc2ccco2)nc2cc(S(N)(=O)=O)ccc21	-7%	-2%	0%	10%
12	CC(C)C(C)NC(=O)COc1ccc(S(=O)(=O)N2CCOCC2)cc1Cl (configuration not stated)	-4%	nt	nt	2%
13	CCOc1ccc(C2=NNC(c3cccs3)=Nc3ccc(OCC)cc32)cc1	nt	nt	-20%	-8%
14	COC(=O)[C@@]1(Cc2ccc(OC)cc2)[C@H]2c3cc(C(=O)N4CCCC4)n(CCc4c[nH]c5ccccc45)c3C[C@H]2CN1C(=O)c1ccccc1	-12%	nt	?	nt
15	COc1ccc(CCC(=O)Nc2nc(C)c(C(=O)N(C)C)s2)cc1	-13%	nt	nt	-1%
16	C/C(CC(=O)Nc1ccc(N(C)C)cc1)=N\NC(=O)c1cnccn1	9%	18%	7%	-11%

No.	RE007 growth inh	Cruzain inh Det	NS1 function inh	Marburg entry inh
9	6%	nt	2%	1%[46.1 µM]
10	nt	-2.2%	nt	nt
11	-10%	0.5%	7%	0%
12	-2%	nt	0%	nt
13	nt	-3.3%	5%	-2%
14	-14%	-5.5%	nt	nt
15	24%	nt	18%	nt
16	nt	-1.0%	27%	?

Following part:
No.	structure	StopGo reporter	Lassa entry inh	Cruzain inh noDet	SARS PLpro yeast
17	O=C(C1CC1)N1CCN(c2nc3c(Cl)cccc3s2)CC1	17%	-7%[46.1 µM]	-4%	nt
18	O=C(COc1ccc(Cl)cc1)NCCSCc1cccc(Cl)c1	14%	14%	12%	-14%
19	CC1=CC(C)(C)NC(=S)N1c1cccc(Cl)c1	-17%	-22%[46.1 µM]	nt	nt
20	O=C(Nc1ccc(F)cc1)c1ccccc1NC(=O)C1CCCCC1C(=O)O (configuration not stated)	6%	0%[46.1 µM]	nt	nt
21	Cc1nc(NC(=O)/C=C/c2ccccc2)sc1C(=O)Nc1cccc(Cl)c1	0%	?	?	5%
22	Cc1cc(OCC(=O)Nc2ccc(N3CCCC3)cc2)cc(C)c1Cl	-15%	7%	4µM*	6%
23	O=Cc1ccc(OCCN2CCCC2=O)cc1	5%	0%	nt	-3%
24	O=C(NCC1CCCO1)C1CCN(C2CCN(CCCC3CCCC3)CC2)CC1 (configuration not stated)	-21%	nt	nt	0%

No.	RE007 growth inh	Cruzain inh Det	NS1 function inh	Marburg entry inh
17	nt	-6.7%	nt	nt
18	3%	-4.5%	-123%	?
19	0%	nt	nt	-18%[46.1 µM]
20	-4%	nt	nt	?
21	12%	-1.6%	5%	?
22	4%	?	10%	0%
23	7%	nt	-10%	15%
24	4%	nt	-2%	nt

Other records follow.
No.	structure	StopGo reporter	Lassa entry inh	Cruzain inh noDet	SARS PLpro yeast
25	CCNc1nc(NCC)n2c(SCC(=O)N3CC4(C)CC3CC(C)(C)C4)nnc2n1 (configuration not stated)	0%	6%	-3%	-10%
26	CC(C)(C)c1ccc(OCCOCCn2cnc3ccccc3c2=O)cc1	-4%	6%	nt	0%
27	Cc1cccc(Nc2nnc(SCC(=O)NCc3cccs3)s2)c1	28%	nt	nt	1%
28	Cc1cccc(N=C2NN=C(c3ccc4c(c3)OCCO4)CS2)c1	4%	?	16µM*	3%
29	COc1ccccc1CNC(=O)CN1NS(=O)(=O)c2ccccc2C1=O	-2%	-4%[46.1 µM]	nt	0%
30	CC(C(=O)O)c1ccc(-c2ccccc2)c(F)c1 (configuration not stated)	-19%&-14%&8%	-17%	2%&7%	-1%&0%
31	COc1ccc(NC(=O)/C=C\C(=O)N(c2ccc(C(C)C)cc2)C(C(=O)NCc2ccco2)c2ccc(C)cc2)cc1 (configuration not stated)	-18%	-36%[46.1 µM]	-12%	nt
32	Cc1onc(-c2ccccc2)c1C(=O)N/N=C/c1cc2c(cc1Br)OCO2	?	?	10%	5%

No.	RE007 growth inh	Cruzain inh Det	NS1 function inh	Marburg entry inh
25	1%	-1.9%	4%	15%
26	-2%	nt	-8%	-2%
27	2%	nt	7%	nt
28	19%	-7.4%	-3%	?
29	-9%	nt	nt	?
30	4%	1.2%&2.9%	-8%&-4%	15%&15%&15%&15%&15%
31	nt	1.3%	nt	nt
32	2%	-11%	4%	?

Next part; the last 2 above are carried over.
No.	structure	StopGo reporter	Lassa entry inh	Cruzain inh noDet	SARS PLpro yeast
31	COc1ccc(NC(=O)/C=C\C(=O)N(c2ccc(C(C)C)cc2)C(C(=O)NCc2ccco2)c2ccc(C)cc2)cc1 (configuration not stated)	-18%	-36%[46.1 µM]	-12%	nt
32	Cc1onc(-c2ccccc2)c1C(=O)N/N=C/c1cc2c(cc1Br)OCO2	?	?	10%	5%
33	COc1cc(NC(=O)CC(C)S(=O)(=O)c2ccc3c(c2)CCN3C(C)=O)cc(OC)c1OC (configuration not stated)	-19%	8%[46.1 µM]	12%	nt
34	Cc1ncc([N+](=O)[O-])n1CC(=O)Nc1ccc(Br)cc1	0%	nt	nt	-2%
35	CC(=O)c1ccc(NC(=O)NC2CCCc3ccccc32)cc1 (configuration not stated)	0%	nt	nt	-1%
36	CC(NC(=O)COC(=O)CC(c1ccccc1)c1ccccc1)c1ccccc1 (configuration not stated)	-17%	?	8%	1%
37	Cc1ccc2c(-c3ccc([N+](=O)[O-])cc3)cc(=O)[nH]c2c1	-14%	2%[46.1 µM]	nt	1%
38	CCCCN1CC(c2nc3ccccc3n2CCCCOc2ccccc2C)CC1=O (configuration not stated)	-25%	2%[46.1 µM]	-12%	nt
39	COc1cccc(/C=C2\SC(=O)N(CCC(=O)N3CCCCC3CCO)C2=O)c1 (configuration not stated)	-24%	nt	nt	11%
40	Cc1cc2nc3c(nc2cc1C)C1(C(=O)N(C)C)CCC3(C)C1(C)C (configuration not stated)	-24%	?	-2%	0%

No.	RE007 growth inh	Cruzain inh Det	NS1 function inh	Marburg entry inh
31	nt	1.3%	nt	nt
32	2%	-11%	4%	?
33	nt	-4.5%	nt	nt
34	-5%	nt	2%	7%
35	14%	nt	-11%	nt
36	20%	-4.1%	-28%	3%
37	10%	nt	7%	?
38	nt	-2.6%	nt	?
39	2%	nt	-20%	nt
40	3%	2.7%	-1%	6%

Record cards, from the list above. Screens in order: StopGo reporter, Lassa entry inh, Cruzain inh noDet, SARS PLpro yeast, RE007 growth inh, Cruzain inh Det, NS1 function inh, Marburg entry inh
Results for CC1=CC(C)(C)NC(=S)N1c1cccc(Cl)c1 = -17%, -22%[46.1 µM], nt, nt, 0%, nt, nt, -18%[46.1 µM]
Results for Cc1ncc([N+](=O)[O-])n1CC(=O)Nc1ccc(Br)cc1 = 0%, nt, nt, -2%, -5%, nt, 2%, 7%

Following part
No.	structure	StopGo reporter	Lassa entry inh	Cruzain inh noDet	SARS PLpro yeast
41	CC1(C)CC(=O)C=C(Nc2ccc3c(c2)OCCO3)C1	-24%	5%	4%	8%
42	Cn1nnnc1SCC(=O)Nc1nc(-c2ccc(F)c(F)c2)cs1	?	nt	nt	21%
43	O=c1c2ccccc2[nH]c(=S)n1CCC1=CCCCC1	31%[activator]	-1%[46.1 µM]	?	7%
44	O=C(Nc1ccc(Nc2ccccc2)cc1)c1ccc(Br)cc1	-15%	nt	nt	?
45	O=C(COc1ccccc1)NCC(c1ccc(Cl)cc1)N1CCOCC1 (configuration not stated)	-2%	-17%[46.1 µM]	11%	nt
46	CNC(=O)Nc1ccccc1C(=O)Nc1ccccc1	8%	8%[46.1 µM]	nt	-1%
47	COc1cc(/C=N/NC(=O)c2cccc(C)c2)ccc1OCC(=O)Nc1ccccc1	17%	-26%	nt	nt
48	COc1cc(C2/C(=C(\O)c3ccc4c(c3)OCCO4)C(=O)C(=O)N2CCN2CCOCC2)cc(OC)c1OC (configuration not stated)	-8%	-2%	nt	0%

No.	RE007 growth inh	Cruzain inh Det	NS1 function inh	Marburg entry inh
41	25%	1.4%	15%	1%
42	6%	nt	11%	nt
43	-8%	?	15%	?
44	-2%	nt	9%	nt
45	nt	-2.3%	nt	4%[46.1 µM]
46	0%	nt	-3%	-8%[46.1 µM]
47	0%	nt	nt	?
48	13%	nt	3%	?
